High-throughput results deposited in PubChem BioAssay by Johns Hopkins Ion Channel Center.
KCNQ2 inh – KCNQ2 channel blockers in CHO-K1 cells – cell-based, FluxOR thallium flux, B-score, primary screen (AID 2156); 20 min; stronger effect = lower value; only compounds with negative scores are shown here; some inactives read as strong as hits; B-score at 10 µM; actives 1.1% (n = 310,000);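 active = fluorescence ratio B-score at most minus 3 library SDs, with starting brightness B-score within 2 library SDs, cut at about -5.5 in these data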
Target sequence (O88943 whole entry, looked up): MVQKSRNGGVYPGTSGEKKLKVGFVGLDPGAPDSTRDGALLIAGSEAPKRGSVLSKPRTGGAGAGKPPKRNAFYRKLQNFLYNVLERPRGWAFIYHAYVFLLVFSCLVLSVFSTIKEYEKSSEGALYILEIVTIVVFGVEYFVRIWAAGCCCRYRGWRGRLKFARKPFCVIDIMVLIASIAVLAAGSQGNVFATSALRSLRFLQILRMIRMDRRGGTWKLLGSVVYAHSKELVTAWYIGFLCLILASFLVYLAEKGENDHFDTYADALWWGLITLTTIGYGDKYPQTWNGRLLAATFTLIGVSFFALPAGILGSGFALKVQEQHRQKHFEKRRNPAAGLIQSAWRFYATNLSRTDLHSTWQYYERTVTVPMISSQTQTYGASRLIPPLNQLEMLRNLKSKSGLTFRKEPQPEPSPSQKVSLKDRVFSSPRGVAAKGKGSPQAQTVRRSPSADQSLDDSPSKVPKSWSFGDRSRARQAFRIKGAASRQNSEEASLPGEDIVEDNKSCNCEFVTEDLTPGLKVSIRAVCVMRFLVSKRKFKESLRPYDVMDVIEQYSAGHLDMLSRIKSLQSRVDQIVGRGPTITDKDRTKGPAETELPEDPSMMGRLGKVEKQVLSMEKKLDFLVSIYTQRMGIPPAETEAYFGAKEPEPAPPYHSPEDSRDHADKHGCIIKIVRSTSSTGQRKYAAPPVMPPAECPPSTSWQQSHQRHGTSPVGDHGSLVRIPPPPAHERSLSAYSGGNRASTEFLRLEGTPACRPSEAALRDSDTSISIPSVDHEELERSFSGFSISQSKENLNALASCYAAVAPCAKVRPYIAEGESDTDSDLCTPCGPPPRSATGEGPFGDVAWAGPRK
KCNQ2 inh baseline – second read-out of KCNQ2 inh, no call of its own (marks repeat the call); B-score; measured here: initial fluorescence intensity artifact check;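 brightness before thallium and not channel activity; 0 = typical well and far values either way flag optical interference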
Starred values were filed as active, the others as inactive; i = inactive.

| KCNQ2 inh | KCNQ2 inh baseline | canonical_smiles |
| --- | --- | --- |
| i | -0.85 | Cc1cccnc1NC1OC(=O)c2ccccc21 (stereo not given) |
| i | 0.51 | O=[N+]([O-])c1ccc2c(c1)S(=O)c1ccccc1-2 (stereo not given) |
| i | 6.6 | Cc1cc(=O)oc2c3c4c(cc12)OCCN4CCC3 |
| i | 0.28 | CC(=O)c1ccc(NC(=O)C2CCCC2)cc1 |
| i | 0.45 | COc1ccc(C(=O)CC(=O)O)c2c1C=CC(C)(C)O2 |
| i | 0.48 | CCn1c(=O)c(C(=O)NNC(=O)c2cccc(Cl)c2)c(O)c2ccccc21 |
| i | 0.98 | CN(C)c1ccc(C2Nc3ccccc3C(=O)N2NS(C)(=O)=O)cc1 (stereo not given) |
| i | 1.2 | CC1S/C(=N/N=C2CCCCC2)NC1=O (stereo not given) |
| i | 0.05 | CCOc1cccc2sc(N(CCN(CC)CC)C(=O)c3ccc(S(=O)(=O)N4CCCCC4)cc3)nc12 |
| i | -0.46 | COc1ccc(CCNC(=O)[C@@H](NC(N)=O)C(C)C)cc1 |
| i | -0.19 | Cn1ccnc1SCCNC(=O)CCc1nnc(CCc2ccccc2)o1 |
| i | 0.01 | Cc1ccc(-c2c[n+](CC(=O)Nc3nc(-c4ccc(F)cc4)cs3)c3n2CCC3)cc1 |
| i | 3.3 | Cc1nc(CSc2ccccc2)cc(=O)[nH]1 |
| i | -0.71 | COC(=O)/C(=C\Nc1ccccc1N)c1ncc(C(F)(F)F)cc1Cl |
| i | -1.3 | Cc1ccc(Oc2nc(CN3CCOCC3)nc3sc4c(c23)CCC(C)C4)cc1 (stereo not given) |
| i | -0.53 | COc1ccc(N(CC(=O)Nc2cc(C)ccc2OC)S(=O)(=O)c2c(C)noc2C)cc1 |
| i | -0.39 | O=C(NCc1ccccc1)C1=C[C@H](C2CC2)C[C@H](OCCCCO)O1 |
| i | -1 | Cn1c(N)c(C(=O)NCc2ccccc2)sc1=S |
| i | 1.4 | CS(=O)(=O)c1ccc(-c2cccc(NC(=O)COc3ccccc3)c2)nn1 |
| i | -1.5 | Nc1ccccc1C#Cc1ccc2[nH]ccc2c1 |
| i | -0.94 | O=C(NC1CC1)C1Nc2ccc(OC(F)(F)F)cc2C2C=CCC12 (stereo not given) |
| i | -0.87 | C1CCCCCC(NCCN2CCNCC2)CCCCC1 |
| i | 0.12 | O=C(Cc1ccccc1[N+](=O)[O-])N1CCOCC1 |
| i | -2.1 | CCC(=O)NC(=S)Nc1ccc(NC(=S)NC(=O)c2ccccc2)cc1 |
| i | 0.31 | CC(C)C1C(C#N)=C(N)Oc2n[nH]c(-c3ccc4ccccc4c3)c21 (stereo not given) |
| i | -1.1 | Cc1oc(-c2cccs2)nc1CS(=O)CC(=O)NCCc1ccccc1 (stereo not given) |
| i | -1.4 | O=C(Cc1ccccc1)NCC(=O)OC(c1ccccc1)c1ccccc1 |
| i | 0.87 | COc1ccc(N2CCN(CCCNC(=O)C(=O)c3c[nH]c4ccccc34)CC2)cc1 |
| i | -0.16 | COc1ccccc1CC(NC(C)=O)C(=O)NC1CCN(C(=O)NCc2ccccc2)CC1 (stereo not given) |
| i | -2 | COc1cc(/C=N/NC(=O)c2ccncc2)ccc1O |
| i | -0.98 | CC(Nc1cc(N2CCNCC2)ccc1[N+](=O)[O-])c1ccccc1 (stereo not given) |
| i | -2.3 | Cc1cccc(CS(=O)(=O)c2ncc(Cl)c(C(=O)Nc3c(C)cccc3C)n2)c1 |
| i | 1.4 | CN(C)c1ccccc1C(=O)N1CCCC(Nc2ccc(F)cc2)C1 (stereo not given) |
| i | -0.1 | COc1ccc(NC(=O)CCC(=O)N/N=C/c2cccnc2)cc1 |
| i | 2.4 | CCOc1ccc(C(=O)c2nc3c(n2O)CCCCC3)cc1 |
| i | 0.76 | O=C(NCCCl)NNC(=O)c1cc2ccccc2cc1O |
| i | -0.11 | Cc1nnc(SC(C)C(=O)Nc2ccc3c(c2)OCCO3)s1 (stereo not given) |
| i | 0.96 | COc1cccc(-c2cc(C(=O)N3CCN(c4ncccn4)CC3)c3ccccc3n2)c1 |
| i | 0.94 | Cc1cc(C)c(C(=O)CSc2nc3ccccc3c(=O)[nH]2)cc1C |
| i | -0.43 | COc1ccccc1/C=C\C(=O)NCC(=O)N/N=C(\C)Cc1ccccc1 |
| -8.5* | 1.2* | CCOc1ccc2nc(SCC(=O)Nc3ccc(S(=O)(=O)N4CCCC4)cc3)c(C)cc2c1 |
| i | 1.6 | Cc1cc(NC(=O)CCC(=O)N(c2cccc(F)c2)C(C(=O)NC2CCCC2)c2ccncc2)no1 (stereo not given) |
| i | 0.03 | Cc1ccc(NC(=O)C2(c3ccccc3)CCOCC2)c([N+](=O)[O-])c1 |
| i | -0.99 | COc1ccc(NC(=O)N2CCCc3cccc(C)c32)cc1 |
| i | 0.38 | C/C(=C\C(=O)c1ccc(Cl)cc1Cl)N(C)C |
| i | -1.2 | Cc1c(-c2ccc(Br)cc2)[n+](=O)c2c(n1[O-])CCCCC2 |
| i | -0.78 | CN(C)c1ccc(-c2nnn(CC(=O)Nc3ccccc3N3CCOCC3)n2)cc1 |
| i | 2.9 | Cc1cccc2sc(NC(=O)[C@@H]3CCCN3C(=O)c3cccs3)nc12 |
| i | 1 | O=C(COC(=O)c1cncc(Br)c1)Nc1nc(-c2ccc(F)cc2)cs1 |
| i | -0.83 | CN(C)S(=O)(=O)c1cccc(NC(=S)Nc2ccc3cn[nH]c3c2)c1 |
| i | 2.4 | Cn1c(SCC(=O)N2CCOCC2)nc2sc3c(c2c1=O)CCCC3 |
| i | -1 | Cc1ccc(NC(=O)CN2C(=O)S/C(=C\C(=O)Nc3ccc(Cl)cc3)C2=O)cc1 |
| i | -0.55 | Cc1cc(C)n2nc(C(=O)NCc3ccco3)cc2n1 |
| i | 0.45 | O=C(CCC(=O)Nc1ccccc1)N/N=C/c1ccco1 |
| i | -0.26 | CCCCNC(=O)/C(C#N)=C/c1ccc(C(=O)OC)cc1 |
| i | -0.03 | COc1cccc(NC(=O)CSc2c3c(nc4ccccc24)CCCC3)c1 |

Continued:
| KCNQ2 inh | KCNQ2 inh baseline | canonical_smiles |
| --- | --- | --- |
| i | -1.3 | O=C(NCc1ccco1)C12CC3CC(CC(C3)C1)C2 |
| i | -0.18 | COC(=O)c1ccc(COc2ccccc2/C=C(\C#N)C(=O)Nc2ccc(C)cc2C)cc1 |
| i | 2.3 | CCC(CNC(=O)c1c(C)nn(-c2ccccc2)c1Cl)c1ccccc1 (stereo not given) |
| i | -1.1 | CSCCC(C)N1CCC(Oc2ccc(C(=O)N3CCCC3)cc2)CC1 (stereo not given) |
| i | 2 | O=C(Nc1ccccc1Cl)O/N=C/c1ccncc1 |
| i | -0.05 | COc1cc(C(=S)N2CCOCC2)ccc1OC(=O)c1ccccc1 |
| i | 1.6 | COc1cccc(N2CCN(C(=O)c3cccc(NC4=NC5CS(=O)(=O)CC5S4)c3)CC2)c1 (stereo not given) |
| i | 0.67 | CCOC(=O)CNc1ccc2c(c1)OCO2 |

Record cards, as listed above. Order of values: KCNQ2 inh	KCNQ2 inh baseline
`COc1cc(C(=S)N2CCOCC2)ccc1OC(=O)c1ccccc1` as listed: i	-0.05
`COc1cccc(N2CCN(C(=O)c3cccc(NC4=NC5CS(=O)(=O)CC5S4)c3)CC2)c1` (stereo not given) as listed: i	1.6
`CCC(CNC(=O)c1c(C)nn(-c2ccccc2)c1Cl)c1ccccc1` (stereo not given) as listed: i	2.3
`COC(=O)c1ccc(COc2ccccc2/C=C(\C#N)C(=O)Nc2ccc(C)cc2C)cc1` as listed: i	-0.18

New compounds follow.
| KCNQ2 inh | KCNQ2 inh baseline | canonical_smiles |
| --- | --- | --- |
| i | 0.17 | CC1(C)CC(=O)C/C(=N\NC(=O)C2C3CCCCC32)C1 (stereo not given) |
| i | 0.93 | Cc1cccc2c1NC(C)CC2C (stereo not given) |
| i | -1.8 | COc1ccc(C2CC(c3cccs3)=NN2C(=O)CSc2nc3c(cnn3-c3ccccc3)c(=O)[nH]2)cc1 (stereo not given) |
| i | -2.5 | Cc1sc(NC(=O)c2cccc([N+](=O)[O-])c2)c(C(N)=O)c1-c1ccc(C(C)(C)C)cc1 |
| i | 1.3 | CCn1ncc(C(=O)Nc2ccc(F)cc2)c1C |
| i | -0.57 | O=C(Cn1cnc2ccccc21)c1ccc(Br)cc1 |
| i | 0.92 | COc1ccccc1OCCn1cc(/C=C(\C#N)C(=O)NCc2cccs2)c2ccccc21 |
| i | 3.4 | N#CCCn1cc(/C=N/NC(N)=S)c(-c2ccc(Br)cc2)n1 |
| i | -0.63 | Cc1ccc(-c2nc(C3CCN(S(=O)(=O)c4ccc(C(F)(F)F)cc4)CC3)no2)cc1 |
| i | 2.4 | COCc1nnc(NC(=O)c2ccc(Cl)cc2[N+](=O)[O-])s1 |
| i | 1.1 | Cc1csc(NC(=O)Cc2ccccc2Cl)n1 |
| i | 1.9 | CCN1C(=O)S/C(=C/c2ccsc2)C1=O |
| i | -0.44 | CCOc1ccc(/C=C/C(O)=C2/C(=O)N(C)C3(C)CC2c2ccccc2O3)cc1OC (stereo not given) |
| i | -0.21 | CCc1ccccc1NC(=O)c1sc2nc(C)cc(C)c2c1N |
| i | 0.43 | Cc1ccccc1CNS(=O)(=O)c1ccc2c(c1)OCCO2 |
| i | 1.8 | COC(=O)c1sccc1NC(=O)CSc1cccc(Cl)c1Cl |

A different layout for some results above.
CCN1C(=O)S/C(=C/c2ccsc2)C1=O
  KCNQ2 inh = i | KCNQ2 inh baseline = 1.9
Cc1ccc(-c2nc(C3CCN(S(=O)(=O)c4ccc(C(F)(F)F)cc4)CC3)no2)cc1
  KCNQ2 inh = i | KCNQ2 inh baseline = -0.63
Cc1csc(NC(=O)Cc2ccccc2Cl)n1
  KCNQ2 inh = i | KCNQ2 inh baseline = 1.1
Cc1ccccc1CNS(=O)(=O)c1ccc2c(c1)OCCO2
  KCNQ2 inh = i | KCNQ2 inh baseline = 0.43

Remaining list, next part:
| KCNQ2 inh | KCNQ2 inh baseline | canonical_smiles |
| --- | --- | --- |
| i | 1.4 | Cc1cc(NC(=O)CSc2nnc(-c3ccco3)n2CC2CCCO2)no1 (stereo not given) |
| i | 1.7 | C/C(=N/NC(=O)CNC(=O)c1ccco1)c1ccco1 |
| i | 0.83 | Cn1c(N2CCOCC2)nc(-c2ccccc2)c1-c1ccccc1 |
| i | -0.79 | Cc1ccc(Cl)cc1NC(=S)N(Cc1ccccc1)Cc1cccnc1 |
| i | 0.72 | CC1(C)Cc2cccc(C(=O)Nc3ccc(Cl)cc3)c2O1 |
| i | 0.13 | O=C(Cn1nc(Cl)nc1Cl)c1ccc2c(c1)OCCO2 |
| i | -0.33 | N#CC(C#N)=C/C=C(\Nc1ccc(Cl)cc1)c1ccc(Cl)cc1 |
| i | -1.3 | Cc1ccc(CSCCNC(=O)CCSc2ccccc2)cc1 |
| i | -0.33 | O=C(Nc1cccc(-c2cn3ccccc3n2)c1)c1cccs1 |
| i | -1.6 | O=C(O)CN1C(=O)C(=O)N(Cc2ccc(C(F)(F)F)cc2)C1=O |
| i | 0.03 | O=C(NCc1nnc(SCC(=O)N2CCC(Cc3ccccc3)CC2)o1)c1ccccc1F |
| i | -2.9 | O=C(c1ccc(Cl)c(S(=O)(=O)N2CCOCC2)c1)N1CCN(c2ccccc2)CC1 |
| i | -0.01 | COc1ccc(/C(C)=N/NC(=O)CCC(=O)Nc2ccc(Cl)cc2Cl)c(OC)c1 |
| i | 1.6 | COCCn1cnc2c1c(=O)n(CC(=O)OCC#N)c(=O)n2Cc1ccccc1 |
| i | 0.19 | O=C(/C=C/c1ccco1)NCCCN1CCN(CCCNC(=O)/C=C/c2ccco2)CC1 |
| i | 0.01 | C=CCNC(=O)COC(=O)c1cc(S(=O)(=O)N2CCCCC2)ccc1Cl |
| i | 2.1 | Cc1cc(=O)[nH]c2ccc(S(=O)(=O)N3CCOCC3)cc12 |
| i | -0.91 | CCCC1(c2ccccc2)NC(=O)N(CCN2C(=O)c3ccccc3C2=O)C1=O (stereo not given) |
| i | -1.1 | CCOc1cccc(/C=N/NC(=O)CC2C(=O)NN=C2C)c1O (stereo not given) |
| -6.1* | -0.19* | c1ccc(CCc2nn3c(C4COc5ccccc5O4)nnc3s2)cc1 (stereo not given) |
| i | 0.74 | CC(=O)N(c1ccc(C)cc1)S(=O)(=O)c1ccc(Cl)cc1 |
| i | 1 | COc1ccccc1OCC#CCn1ccnc1 |
| i | -0.02 | S=C1NCN(C2CCCCC2)CN1c1ccccc1 |
| i | 24 | Brc1ccc(C2=CC(c3cccs3)n3ncnc3N2)cc1 (stereo not given) |
| i | -0.31 | COc1ccc(CN2C(=O)COc3ccccc32)cc1 |
| i | -0.28 | Cn1c(SCC(=O)N2CCCc3ccccc32)nnc1-c1ccco1 |
| i | -0.85 | CC(C)n1c(NCc2nc3ccccc3n2C)nc2ccccc21 |
| i | -0.04 | CCC(=O)N=c1ccn(C2=Nc3ccccc3NC2=C(C#N)C#N)cc1 |
| i | 4.2 | O=C(NC1CCCCCC1)C1CCCN(c2ncccn2)C1 (stereo not given) |
| i | -0.47 | Cc1nn(-c2ccccc2)c(C)c1/C=C/C(=O)OC(C)C(=O)Nc1ncc(Cl)cc1Cl (stereo not given) |
| i | 0.89 | c1ccc2nc(N3CCN(Cc4ccc5c(c4)OCO5)CC3)cnc2c1 |
| i | -2 | O=c1oc2cc([N+](=O)[O-])ccc2nc1/C=C(O)/C=C/c1ccccc1 |
| i | -0.26 | FC(F)(F)c1cccc(NC(=S)NCC2COc3ccccc3O2)c1 (stereo not given) |
| i | -1.8 | COc1ccc(N2CCN(C(=O)C3CCCN(S(=O)(=O)c4ccc(F)cc4)C3)CC2)cc1 (stereo not given) |
| i | -0.16 | O=C(CCC(=O)OCc1ccc([N+](=O)[O-])cc1)Nc1ccc(F)cc1 |
| i | 0.31 | CC(C)c1ccc(N2C=Nc3ccc(C(C)C)cc3C2)cc1 |
| i | 0.34 | O=S(=O)(c1cnc(Cl)c(Cl)c1)N1CCCc2ccccc21 |
| i | 0.3 | CCCCN(CCCC)C(=O)c1ccccc1NC(=O)CN1C(=O)c2ccccc2C1=O |
| i | 0.65 | CN=c1scc(C)n1/N=C/c1ccc(O)cc1 |

Some of the compounds tested; count on the stated rates, not on these rows.
